2A StopGo: lowers the luciferase signal of an FMDV 2A StopGo reporter | human cells with a luciferase reporter of 2A StopGo recoding; control for the full effect not named in the record | AID 1159524 | 1.2% of 410,000 active | Potency, µM (series often up to 57.9 µM), without a hit: top-dose signal change, negative = less light; active = well fitted falling curve with a large enough effect; inconclusive = small, poorly fitted or top-dose-only effect; inactive = no such curve, though single readings can be large or run the other way; tested in HEK293T cells; also: % is scaled to controls: 0 for no effect and ±100 for the full control effect; nearly all actives have a fitted effect of over 45% in size; luciferase light after 4 h
Cruzain inh noDet: cruzain (T. cruzi) inhibition without detergent | P25779 | purified cruzain, Z-FR-AMC fluorescence, no detergent | Potency, µM, for inactives: max response, negative = inhibition, usual class: inhibitors | 2.3% of 200,000 active | AID 1476;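 also: plate controls were enzyme without inhibitor for no effect and buffer without enzyme for full effect; nearly all actives have a fitted effect of over 40% in size; top concentration of the series not given in the record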
Target sequence (P25779 123-467 limits assumed): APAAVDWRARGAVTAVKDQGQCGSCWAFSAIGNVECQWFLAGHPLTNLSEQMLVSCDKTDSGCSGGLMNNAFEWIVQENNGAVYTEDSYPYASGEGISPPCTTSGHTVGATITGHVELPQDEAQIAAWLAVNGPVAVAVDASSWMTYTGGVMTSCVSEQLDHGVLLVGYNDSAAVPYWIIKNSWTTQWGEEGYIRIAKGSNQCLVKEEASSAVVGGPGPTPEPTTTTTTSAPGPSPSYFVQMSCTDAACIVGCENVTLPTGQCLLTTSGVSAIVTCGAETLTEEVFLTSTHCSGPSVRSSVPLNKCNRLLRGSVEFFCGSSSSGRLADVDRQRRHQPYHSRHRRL
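Purified cruzain at 1.5 nM, pre-incubated 15 min with compound at room temperature in 100 mM sodium acetate pH 5.5, 5 mM DTT, 0.00005% Triton X-100. Reaction started with 2 uM Z-FR-AMC; AMC fluorescence increase over 60 s gives rate.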
Marburg entry inh: inhibitors of Marburg virus binding or cell entry | Marburg virus pseudotyped entry inhibition, cell reporter; control for the full effect not named in the record; about a third of the inactives were read at about 46 µM | Potency, µM (top dose mostly 37.8 µM), inactives show at the highest dose activity change, negative = inhibition, usual class: inhibitors | 1.8% of 300,000 active | AID 540276; active = well fitted inhibition curve with a large enough effect; inconclusive = small, poorly fitted or top-dose-only effect, or effect the other way; inactive = flat fitted curve, though single readings scatter; tested in HEK293 cells; about a fifth of its hits are not listed in these tables; also: % is scaled to controls: 0 for no effect and ±100 for the full control effect; luciferase read-out
NS1 inh: inhibitors of influenza NS1 protein function | S. cerevisiae slowed by influenza A NS1, growth recovery by OD600 | Potency, µM (series often up to 46.1 µM), for the others: at the highest dose activity, positive = more growth | 0.4% of 270,000 active; active means well fitted rising curve with a large enough effect; inconclusive means small, poorly fitted or top-dose-only effect; inactive means no such curve, though single readings can be large or run the other way; also: nearly all actives have a fitted effect of over 50% in size
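Compounds were scored for reversing the slow growth caused by influenza A NS1 in S. cerevisiae, measured by optical density at 600 nm. Assay medium contained 2% galactose at pH 6.0; NS1-free yeast of the same strain were the positive control.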
RE007 growth inh: less growth of the S. pombe RE007 Vpr strain | S. pombe RE007 Vpr strain, BacTiter-Glo ATP luminescence, 24 h; control for the full effect not named in the record | Potency, µM (highest dose often 92.2 µM), for the others: top-dose activity change, negative = less growth | 0.21% of 360,000 active; active = well fitted falling curve with a large enough effect; inconclusive = small, poorly fitted or top-dose-only effect; inactive = no such curve, though single readings can be large or run the other way;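 also: % is scaled to controls: 0 for no effect and ±100 for the full control effect; nearly all actives have a fitted effect of over 50% in size; the assay follows cell death caused by Vpr and the record does not say whether a fall means rescue or toxicity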
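Fission yeast RE007 carrying one integrated HIV-1 vpr copy, seeded at OD 0.01 in PMG+AL medium with 23 nL pinned compound. Grown 24 h at 30 degrees; viability read by BacTiter-Glo luminescence after 5 min.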
Cruzain Triton: inhibitors of Trypanosoma cruzi cruzain with detergent | P25779 | purified cruzain, Z-FR-AMC fluorescence, 0.01% Triton | Potency, µM, for inactives: max response, negative = inhibition, actives largely listed as inhibitors | 0.43% of 200,000 active;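 also: plate controls were neutral wells for no effect and buffer without enzyme for full effect; nearly all actives have a fitted effect of over 40% in size; top concentration of the series not given in the record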
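15 min RT preincubation of 1.5 nM cruzain with compound, then 2 uM Z-FR-AMC added; kinetic AMC fluorescence, 60 s delta. Triton X-100 0.01%, pH 5.5.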
SARS PLpro yeast: SARS-CoV PLP inhibition in yeast; S. cerevisiae expressing SARS-CoV PLpro, growth rescue; control for the full effect not named in the record; Potency, µM (titrated, usually from 32.9 µM), inactives show at the highest dose activity, positive = growth rescue; 0.19% of 330,000 active; active means well fitted rising curve with a large enough effect; inconclusive means small, poorly fitted or top-dose-only effect; inactive means no such curve, though single readings can be large or run the other way; also: 0% is about no effect; nearly all actives have a fitted effect of over 55% in size; growth read by luminescence after 48 h
LASV entry inh: blocks Lassa virus binding to or entry into cells | Lassa virus pseudotype entry inhibition, cell reporter; control for the full effect not named in the record | Potency, µM (titrated, usually from 37.9 µM), for inactives: top-dose activity change, negative = inhibition, actives largely listed as inhibitors | 1.2% of 300,000 active | AID 540256; active means well fitted inhibition curve with a large enough effect; inconclusive means small, poorly fitted or top-dose-only effect, or effect the other way; inactive means flat fitted curve, though single readings scatter; tested in HEK293 cells; also: % is scaled to controls: 0 for no effect and ±100 for the full control effect; nearly all actives have a fitted effect of over 50% in size; luciferase read-out
* = called active by the depositor; & = joins results of further samples; [ ] = remark or other dose. Unless noted, calls follow the shape of the dose curve; as a rule, active = well fitted curve in the direction sought with a large enough effect; inconclusive = small, poorly fitted or top-dose-only effect, or another doubt; inactive = no such curve, though single readings can be large; an effect the other way counts as inactive or inconclusive. Potency is read from the fitted curve at half-maximal effect.

Screening Cc1ncc([N+](=O)[O-])n1CCOC(=O)NC(NCc1cccnc1)C(Cl)(Cl)Cl (stereo unspecified) returned 2A StopGo 0.0%, Cruzain inh noDet -3.3%, Marburg entry inh inconclusive, NS1 inh 7.1%, RE007 growth inh -15.5%, Cruzain Triton -2.5%, SARS PLpro yeast -1.3% and LASV entry inh 0.1%.
For Cc1ccc(C)c(N2CCN(C(=O)CCCn3c(=S)[nH]c4cc5c(cc4c3=O)OCO5)CC2)c1 the results were 2A StopGo -29.7%, Cruzain inh noDet -24.9%, Marburg entry inh inconclusive, NS1 inh -47.9%, RE007 growth inh 2.4%[3.69 µM], Cruzain Triton -2.4%, SARS PLpro yeast -3.8% and LASV entry inh -1.7%.
Screening CCOc1ccccc1C(=O)NCC(=O)NNC(=O)CN(C)S(=O)(=O)c1ccc(Cl)cc1 returned 2A StopGo -19.1%, Marburg entry inh inconclusive, RE007 growth inh 2.8%, SARS PLpro yeast 1.5% and LASV entry inh -0.3%.
Screening COc1cc(-c2nc3ccc(C)cn3c2Nc2ccc3c(c2)OCCO3)ccc1O returned 2A StopGo -0.1%, Cruzain inh noDet -4.8%, Marburg entry inh -38.3%, NS1 inh -25.4%, RE007 growth inh 4.2%, Cruzain Triton -14.3%, SARS PLpro yeast -1.9% and LASV entry inh -32.0%.
For Cc1ccc(N2CC(NC(=O)C(=O)c3c[nH]c4ccccc34)CC2=O)cc1 (stereo unspecified) the results were 2A StopGo -5.7%, Cruzain inh noDet -24.6%, Cruzain Triton -2.7% and LASV entry inh 1.5%[46.1 µM].
Screening COc1ccc(-c2nn3c(-c4ccc(OC)cc4)nnc3c3ccccc23)cc1 returned 2A StopGo -16.6%, Cruzain inh noDet 0.9%, Marburg entry inh 20.7%[46.1 µM], Cruzain Triton 1.0% and LASV entry inh 0.6%[46.1 µM].
For Fc1ccc(C2CCCCN2Cc2nc(CC3CC3)no2)cc1 (stereo unspecified) the results were 2A StopGo -3.1%, Marburg entry inh -21.2%[46.1 µM], NS1 inh 5.3%, RE007 growth inh -3.3%, SARS PLpro yeast 0.2% and LASV entry inh 13.1%.
`Cc1cc(N2CCN(C3CCCCC3)CC2)nc2cccc(O)c12` gave 2A StopGo -15.4%, Cruzain inh noDet 2.5%, NS1 inh 8.6%, RE007 growth inh -2.7%, Cruzain Triton -13.6% and SARS PLpro yeast 4.4%.
`O=C(Nc1ccc(Cl)cc1)c1cccs1` gave 2A StopGo 20.9%, Cruzain inh noDet -5.9%, Marburg entry inh 8.0%, NS1 inh -135.5%, RE007 growth inh inconclusive, Cruzain Triton -4.1% and LASV entry inh 16.2%.
CSc1nnc(CNS(=O)(=O)c2ccc(Cl)cc2)n1C was read as 2A StopGo -8.4%, Marburg entry inh -11.3%[46.1 µM], NS1 inh 7.0%, RE007 growth inh 13.4%, SARS PLpro yeast 0.0% and LASV entry inh inconclusive.
`Cn1c(Cn2c(=O)sc3ccccc32)nnc1SCc1ccccn1` gave 2A StopGo 22.9%, Cruzain inh noDet 7.8%, Marburg entry inh 16.8%, NS1 inh 10.9%, RE007 growth inh 8.8%, Cruzain Triton 3.1%, SARS PLpro yeast 4.4% and LASV entry inh 2.0%.
c1ccc(N2CCN(Cc3nnc(-c4ccc5c(c4)OCO5)o3)CC2)cc1 was read as 2A StopGo 19.2%, Cruzain inh noDet -1.9%, Marburg entry inh -4.4%[46.1 µM], Cruzain Triton -1.2% and LASV entry inh 1.9%[46.1 µM].
Screening CCc1cccc(C)c1NC(=O)C1CCN(S(=O)(=O)c2cccc3nonc23)CC1 returned 2A StopGo -24.8%, Cruzain inh noDet -6.1%, Marburg entry inh inconclusive, Cruzain Triton -2.0% and LASV entry inh 14.3%[46.1 µM].
`Cc1nc2ccc(S(=O)(=O)NC(C(=O)Nc3nc4ccc(Cl)cc4s3)C(C)C)cc2s1` (stereo unspecified) gave 2A StopGo 0.0%, Cruzain inh noDet 12.2%, NS1 inh 11.6%, RE007 growth inh -1.4%, Cruzain Triton 0.4% and SARS PLpro yeast -12.4%.
`Cc1ccc(C(=O)Nc2ccc(CN3CCS(=O)(=O)CC3)cc2)cc1C` gave 2A StopGo 19.8%, Marburg entry inh 25.6%, NS1 inh 3.4%, RE007 growth inh 3.3%, SARS PLpro yeast -0.3% and LASV entry inh 26.3%.
Screening CCOC(=O)N1CCN(S(=O)(=O)c2c(C)nn(C)c2C)CC1 returned 2A StopGo -4.2%, Cruzain inh noDet 7.4%, Marburg entry inh inconclusive, NS1 inh 14.0%, RE007 growth inh 19.1%, Cruzain Triton 1.3%, SARS PLpro yeast -2.7% and LASV entry inh -1.4%.
`CCN(CC(=O)NC(C)C)Cc1nc2sc3c(c2c(=O)[nH]1)CCC3` gave 2A StopGo -12.6%, Cruzain inh noDet -1.5%, Marburg entry inh -26.1%, NS1 inh -5.7%, RE007 growth inh -3.3%, Cruzain Triton -4.7%, SARS PLpro yeast -2.4% and LASV entry inh -3.0%.
`c1ccc(COc2ccc(OCCCN3CCCCC3)cc2)cc1` gave 2A StopGo 6.8%, Cruzain inh noDet 11.2%, Marburg entry inh inconclusive, NS1 inh -7.4%, RE007 growth inh 15.9%, Cruzain Triton 2.0%, SARS PLpro yeast -3.4% and LASV entry inh inconclusive.
Screening NS(=O)(=O)c1ccc(N/N=C/c2ccc3c(c2)OCO3)c([N+](=O)[O-])c1 returned 2A StopGo 35.5%[activator], Marburg entry inh 0.0%[46.1 µM], NS1 inh 2.8%, RE007 growth inh 0.3%, SARS PLpro yeast 0.5% and LASV entry inh 4.4%.
For COc1ccc(CC(=O)n2c(CC#N)nc3ccccc32)cc1OC the results were 2A StopGo 26.0%, Cruzain inh noDet 14.7%, Marburg entry inh -1.3%, NS1 inh 1.2%, RE007 growth inh 3.2%, Cruzain Triton 4.0%, SARS PLpro yeast 2.3% and LASV entry inh 1.7%.
`O=C(NNC(=O)c1ccccc1F)c1ccc(NS(=O)(=O)c2ccc(F)cc2)cc1` gave 2A StopGo 37.0%[activator], Marburg entry inh 12.9%, RE007 growth inh 2.3%, SARS PLpro yeast -3.9% and LASV entry inh 26.7%.
`COC(=O)c1sccc1-c1ccc(C(=O)Nc2cccc(Cl)c2)o1` gave 2A StopGo -1.7%, Cruzain inh noDet -29.1%, Marburg entry inh 16.5%, NS1 inh -9.0%, RE007 growth inh 5.6%, Cruzain Triton -2.7%, SARS PLpro yeast -3.5% and LASV entry inh -3.1%.
CCCC(=O)N=c1sc2c(OC)ccc(OC)c2n1C was read as 2A StopGo -11.4%, NS1 inh -1.4%, RE007 growth inh -4.7% and SARS PLpro yeast 0.1%.
`Cn1c(=O)nc2n(-c3ccc(Br)cc3)c3cccc(Cl)c3cc-2c1=O` gave 2A StopGo -10.3%, Cruzain inh noDet -9.3%, Marburg entry inh 1.2%[46.1 µM], Cruzain Triton -1.0% and LASV entry inh -0.6%[46.1 µM].
`CCOC(=O)c1nc(SC)n(C)c1C(=O)OCC` gave 2A StopGo -0.6%, Marburg entry inh 1.6%[46.1 µM], NS1 inh 2.8%, RE007 growth inh 7.0%, SARS PLpro yeast -1.0% and LASV entry inh 0.1%.
For CN(C(=O)CC1C(=O)NCCN1Cc1cccc(F)c1F)C1CC(C)(C)NC(C)(C)C1 (stereo unspecified) the results were 2A StopGo -24.1%, Marburg entry inh 10.0%, NS1 inh -14.4%, RE007 growth inh 0.7%, SARS PLpro yeast 0.8% and LASV entry inh -5.4%.
Screening O=C(Cc1nnc(NC(=O)c2ccccc2)s1)N/N=C/c1cccc(O)c1 returned 2A StopGo 1.9%, Marburg entry inh 23.4%, NS1 inh 10.2%, RE007 growth inh -6.1%, SARS PLpro yeast 4.8% and LASV entry inh inconclusive.
Screening COc1ccc(C(=O)NCCc2c[nH]c3ccccc23)cc1S(=O)(=O)N1CCCCC1C (stereo unspecified) returned 2A StopGo -23.0%, Marburg entry inh inconclusive, RE007 growth inh 6.5%, SARS PLpro yeast 7.9% and LASV entry inh inconclusive.
O=C(O)CCn1ccc2cc(S(=O)(=O)N3CCCCCC3)ccc21 was read as 2A StopGo 16.6%&15.0%, Cruzain inh noDet -13.5%, Marburg entry inh 9.7%&9.7%[46.1 µM], NS1 inh 14.5%, RE007 growth inh 9.1%, Cruzain Triton -4.1%, SARS PLpro yeast 2.5% and LASV entry inh 13.8%[46.1 µM].
C=CCc1cccc2cc(C(=O)NCCc3c(C)[nH]c4c(C)cccc34)c(=O)oc12 was read as 2A StopGo -11.9%, Cruzain inh noDet 2.1%, Marburg entry inh -0.8%[46.1 µM], Cruzain Triton -1.8% and LASV entry inh inconclusive.
Cn1c(=O)c2cc(S(=O)(=O)Nc3ccc4c(c3)OCO4)ccc2n(C)c1=O was read as Cruzain inh noDet -8.1%, Marburg entry inh -7.3%, NS1 inh -44.9%, RE007 growth inh 0.7%, Cruzain Triton 4.8%, SARS PLpro yeast -0.6% and LASV entry inh -21.6%.
For COc1ccc2ccccc2c1CNCCCN1CCOCC1 the results were 2A StopGo 3.6%, Marburg entry inh inconclusive, NS1 inh 1.1%, RE007 growth inh 4.1% and SARS PLpro yeast 14.7%.
Screening COc1cc(C2C(C#N)=C(N)OC3=C2C(=O)CCC3)cc2c1OCO2 (stereo unspecified) returned 2A StopGo -10.4%, Marburg entry inh inconclusive, NS1 inh 4.7%, RE007 growth inh -5.9%, SARS PLpro yeast 0.2% and LASV entry inh 5.3%.
Screening CCc1cccc2c(C#N)cn(CC(=O)NCc3ccco3)c12 returned 2A StopGo -28.4%, Cruzain inh noDet -19.1%, Marburg entry inh -14.8%[46.1 µM], NS1 inh 11.4%, RE007 growth inh -10.1%, Cruzain Triton -3.4%, SARS PLpro yeast 0.9% and LASV entry inh -9.2%.
CN1CCN(c2ccc(NC(=O)c3ccc(-c4ccc(Cl)cc4)o3)cc2)CC1 was read as 2A StopGo -24.5%, Marburg entry inh inconclusive, NS1 inh -2.1%, RE007 growth inh -5.3%, SARS PLpro yeast -0.9% and LASV entry inh inconclusive.
`CCOc1ccc(CCNC(=O)c2ccc3c(=O)n4c(nc3c2)CCCCC4)cc1` gave 2A StopGo -29.2%, NS1 inh 4.4%, RE007 growth inh 5.1% and SARS PLpro yeast -6.6%.

Screening data deposited in PubChem by National Center for Advancing Translational Sciences (NCATS).

Hits appear at their usual frequency. Share with any hit: about 4.7%.
